High-throughput results from PubChem.
SARS PLpro yeast: qHTS of Yeast-based Assay for SARS-CoV PLP; S. cerevisiae expressing SARS-CoV PLpro, growth rescue; control for the full effect not named in the record; Potency, µM (doses to about 32.9 µM), for inactives: top-dose activity, positive = growth rescue; actives 0.19% (n = 330,000); AID 485353, 2010; active means well fitted rising curve with a large enough effect; inconclusive means small, poorly fitted or top-dose-only effect; inactive means no such curve, though single readings can be large or run the other way; further: 0% is about no effect; nearly all actives have a fitted effect of over 55% in size; growth read by luminescence after 48 h
Cruzain noTriton: qHTS Assay for Promiscuous and Specific Inhibitors of Cruzain (without detergent); Potency, µM, inactives show max response, negative = inhibition, most hits filed as inhibitors; Cruzipain (Trypanosoma cruzi), P25779; AID 1476, 2009; actives 2.3% (n = 200,000); purified cruzain, Z-FR-AMC fluorescence, no detergent;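 further: plate controls were enzyme without inhibitor for no effect and buffer without enzyme for full effect; nearly all actives have a fitted effect of over 40% in size; top concentration of the series not given in the record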
Target sequence (P25779 123-467 limits assumed): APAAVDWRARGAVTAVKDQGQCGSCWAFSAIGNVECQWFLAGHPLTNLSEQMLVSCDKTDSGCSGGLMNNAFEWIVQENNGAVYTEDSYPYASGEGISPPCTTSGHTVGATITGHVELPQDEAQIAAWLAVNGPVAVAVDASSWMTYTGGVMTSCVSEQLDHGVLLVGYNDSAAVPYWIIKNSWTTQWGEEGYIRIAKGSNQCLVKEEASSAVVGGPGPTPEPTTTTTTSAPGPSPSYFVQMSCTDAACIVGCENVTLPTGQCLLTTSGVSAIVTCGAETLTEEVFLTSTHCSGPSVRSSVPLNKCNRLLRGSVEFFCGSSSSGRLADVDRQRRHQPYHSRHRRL
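Detergent-free condition (0.00005% Triton X-100) in acetate buffer pH 5.5 with DTT. 1.5 nM enzyme and compound were pre-mixed 15 min, then 2 uM Z-FR-AMC substrate added; reaction progress from fluorescence change between first and third reads (60 s).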
NS1 inh: qHTS Assay for Inhibitors of Influenza NS1 Protein Function. S. cerevisiae slowed by influenza A NS1, growth recovery by OD600. Potency, µM (top dose mostly 46.1 µM), for the others: at the highest dose activity, positive = more growth. actives 0.4% (n = 270,000). AID 2326, 2010; active means well fitted rising curve with a large enough effect; inconclusive means small, poorly fitted or top-dose-only effect; inactive means no such curve, though single readings can be large or run the other way; further: nearly all actives have a fitted effect of over 50% in size
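Growth recovery, yeast-based: influenza A NS1 expressed in S. cerevisiae causes slow growth, and suppressors are detected by OD600. The parent strain without NS1 is used as positive control.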
Cruzain Triton: qHTS Assay for Promiscuous and Specific Inhibitors of Cruzain (with detergent) | AID 1478, 2009 | Cruzipain (Trypanosoma cruzi), P25779 | actives 0.43% (n = 200,000) | purified cruzain, Z-FR-AMC fluorescence, 0.01% Triton | Potency, µM, for the others: max response, negative = inhibition, actives largely listed as inhibitors;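 further: plate controls were neutral wells for no effect and buffer without enzyme for full effect; nearly all actives have a fitted effect of over 40% in size; top concentration of the series not given in the record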
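Cysteine protease activity tested under reducing, mildly acidic conditions (100 mM sodium acetate pH 5.5, 5 mM DTT) plus 0.01% Triton X-100. Cruzain 1.5 nM; substrate Z-FR-AMC 2 uM; 15 min compound preincubation at room temperature.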
Lassa entry inh: qHTS for Inhibitors of binding or entry into cells for Lassa Virus. AID 540256, 2011. actives 1.2% (n = 300,000). Potency, µM (doses to about 37.9 µM), inactives show at the top dose activity change, negative = inhibition, usual class: inhibitors. Lassa virus pseudotype entry inhibition, cell reporter; control for the full effect not named in the record; active means well fitted inhibition curve with a large enough effect; inconclusive means small, poorly fitted or top-dose-only effect, or effect the other way; inactive means flat fitted curve, though single readings scatter; tested in HEK293 cells; further: on the % scale 0 is the no-effect control and ±100 the full control effect; nearly all actives have a fitted effect of over 50% in size; luciferase read-out
StopGo reporter: High Throughput Screening for Foot and Mouth Disease Virus Antivirals. human cells with a luciferase reporter of 2A StopGo recoding; control for the full effect not named in the record. Potency, µM (series often up to 57.9 µM), for the others: at the top dose signal change, negative = less light. actives 1.2% (n = 410,000). AID 1159524, 2015; active = well fitted falling curve with a large enough effect; inconclusive = small, poorly fitted or top-dose-only effect; inactive = no such curve, though single readings can be large or run the other way; tested in HEK293T cells; further: on the % scale 0 is the no-effect control and ±100 the full control effect; nearly all actives have a fitted effect of over 45% in size; luciferase light after 4 h
Marburg entry inh: qHTS for inhibitors of binding or entry into cells for Marburg Virus; Marburg virus pseudotyped entry inhibition, cell reporter; control for the full effect not named in the record; about a third of the inactives were read at about 46 µM; Potency, µM (top dose mostly 37.8 µM), inactives show at the top dose activity change, negative = inhibition, usual class: inhibitors; actives 1.8% (n = 300,000); active = well fitted inhibition curve with a large enough effect; inconclusive = small, poorly fitted or top-dose-only effect, or effect the other way; inactive = flat fitted curve, though single readings scatter; tested in HEK293 cells; about a fifth of its hits are not listed in these tables; further: on the % scale 0 is the no-effect control and ±100 the full control effect; luciferase read-out
RE007 growth inh: qHTS Assay for Inhibitors of the HIV-1 protein Vpr | S. pombe RE007 Vpr strain, BacTiter-Glo ATP luminescence, 24 h; control for the full effect not named in the record | Potency, µM (titrated, usually from 92.2 µM), for inactives: at the highest dose activity change, negative = less growth | actives 0.21% (n = 360,000) | AID 651644, 2012; active = well fitted falling curve with a large enough effect; inconclusive = small, poorly fitted or top-dose-only effect; inactive = no such curve, though single readings can be large or run the other way;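 further: on the % scale 0 is the no-effect control and ±100 the full control effect; nearly all actives have a fitted effect of over 50% in size; the assay follows cell death caused by Vpr and the record does not say whether a fall means rescue or toxicity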
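Fission yeast strain RE007, carrying one chromosomally integrated HIV-1 vpr copy, was seeded at OD 0.01 in PMG+AL medium with 23 nL pinned compound. After 24 h at 30 °C and 99% humidity, viability was read by BacTiter-Glo luminescence.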
Numbers without * were called inactive; ? = inconclusive; . = not tested or not shown; [ ] = another dose, or the depositor's remark. Unless noted, the call rests on the fitted dose curve; in most records, active means well fitted curve in the direction sought with a large enough effect; inconclusive means small, poorly fitted or top-dose-only effect, or another doubt; inactive means no such curve, though single readings can be large; an effect the other way counts as inactive or inconclusive. Potency means the concentration at half of the fitted maximal effect.

Sample of the layout (2 entries):
SMILES	SARS PLpro yeast	Cruzain noTriton	NS1 inh	Cruzain Triton	Lassa entry inh	StopGo reporter	Marburg entry inh	RE007 growth inh
Cc1ccc(-n2ncc3c(N4CCCCC4)ncnc32)cc1	.	-14%	.	-0.4%	?	?	.	.
O=C(Cc1ccc([N+](=O)[O-])cc1)N1CCCc2ccccc21	7%	.	.	.	8%	-2%	-1%[46.1 µM]	16%

The list itself, previewed entries included:
SMILES	SARS PLpro yeast	Cruzain noTriton	NS1 inh	Cruzain Triton	Lassa entry inh	StopGo reporter	Marburg entry inh	RE007 growth inh
Cc1ccc(-n2ncc3c(N4CCCCC4)ncnc32)cc1	.	-14%	.	-0.4%	?	?	.	.
O=C(Cc1ccc([N+](=O)[O-])cc1)N1CCCc2ccccc21	7%	.	.	.	8%	-2%	-1%[46.1 µM]	16%
O=C(Nc1ccc(S(=O)(=O)NCc2cccnc2)cc1)c1ccco1	0%	4%	10%	0.1%	-13%	-22%	-24%	-2%
O=P(O)(O)/C=C(\Cl)c1ccccc1	4%	-6%	-9%	-3.7%	17%	20%	?	24%
C[C@]12C[C@@H](O)[C@H](O)CC1=CCC1C2CC[C@@]2(C)C1CC[C@@H]2O (stereo partly drawn)	-1%	.	.	.	-12%[46.1 µM]	-3%	?	15%
Cc1cc(C)nc(SCc2nnc(SCC(=O)OC3CCCCC3)o2)n1	-2%	-1%	-23%	-3.0%	?	-31%	13%	-11%
CCc1cc(OCCOCCN(C)C)ccc1Cl	-6%	3%	-13%	-2.4%	-4%	2%	?	3%
Cc1cccc(C)c1-n1ncc(C(=O)N2CCN(c3ccccn3)CC2)c1C1CCN(C(=O)OC(C)(C)C)CC1	.	?	.	-6.1%	?	-28%	.	.
COc1ccc(CN2CCc3nc(N4CCN(c5ccc(F)cc5)CC4)ncc3C2)c(OC)c1OC	.	-15%	.	-22%	?	20µM*	.	.
CCc1ccc2[nH]c(=O)c(CN(Cc3nnnn3C3CCCC3)C3CCCCC3)cc2c1	0%	7%	-60%	-3.3%	1%	.	?	5%
Cc1noc(C)c1COC(=O)c1cc(S(=O)(=O)N2CCOCC2)ccc1Cl	-9%	.	.	.	-3%	?	-5%	3%
COc1ccc(/C=N/NC(=O)c2ccccc2)cc1CN1CCN(c2ccc(F)cc2)CC1	2%	4%	-3%	1.6%	1%	-2%	-4%	-11%
Cc1oc(-c2ccccc2F)nc1CS(=O)CC(=O)NC1CCCCC1 (stereo not drawn)	-2%	.	10%	.	.	31%[activator]	.	-8%
COc1ccc(Nc2nc3c(S(=O)(=O)c4ccccc4)nnn3c3ccc(Cl)cc23)cc1OC	.	-10%	.	-0.5%	.	9%	12%[46.1 µM]	.
O=C(c1cccn2c(=O)c3cc(Br)ccc3nc12)N1CCC2(CC1)OCCO2	20%	9%	-2%	1.9%	1%	13%	?	19%
O=[N+]([O-])c1ccc(N2CCNCC2)cc1Sc1nc2ccccc2[nH]1	13%	-27%	-3%	-4.3%	2%	-15%	?	9%
COc1ccccc1N1CCN(C(=O)NCc2ccc(Cl)cc2)CC1	0%	.	-38%	.	-11%	-7%	-9%[46.1 µM]	-15%
Cc1cc(CNC(=O)Cn2nc(C)c([N+](=O)[O-])c2C)c2ccccc2n1	1%	.	.	.	?	-15%	-6%[46.1 µM]	5%
CCCN(CC(=O)Nc1ccccc1C)C(=O)c1oc2ccc(OCC)cc2c1C	.	.	.	.	-10%	-7%	-4%	2%
O=C(NC1CC2CCCC(C1)N2C(=O)N1CCCCC1)C1CCCCC1 (stereo not drawn)	4%	-2%	7%	2.8%	11%	0%	3%	16%
Nc1cnn(C2OC(CO)C(O)C2O)c(=O)n1 (stereo not drawn)	-4%	.	-5%	.	?	-20%	?	1%
CCn1cc(S(=O)(=O)NCc2ccccc2Br)cn1	3%	.	11%	.	5%	67%[activator]	13%	15%
COc1ccc(/C=C(/NC(=O)c2ccccc2)C(=O)N2CCC(C)CC2)cc1	5%	.	-13%	.	?	11%	2%[46.1 µM]	24%
N/C(=N\OC(=O)C12CC3CC(CC(C3)C1)C2)c1ccccn1	-52%	11%	-22%	-1.4%	?	19%	?	-5%
COc1ccc(C(C(=O)NCc2ccccc2)N(Cc2cccnc2)C(=O)c2snc(C(N)=O)c2N)cc1OC (stereo not drawn)	2%	.	-3%	.	28%[46.1 µM]	-6%	-18%[46.1 µM]	-8%
Cc1cccc(NC(=O)CSc2nc3[nH]ncc3c(=O)[nH]2)c1C	-14%	-3%	6%	-1.0%	10%	-17%	-1%	9%
COc1cccc(N2C(=O)Nc3ccc(Br)cc3C2(O)C(=O)NCCCN(C)C)c1 (stereo not drawn)	-1%	.	0%	.	-5%[46.1 µM]	50%[activator]	2%[46.1 µM]	-12%
Cc1ccc(S(=O)C(c2ccccc2)c2ccccc2)cc1 (stereo not drawn)	.	.	.	.	-13%	-2%	-7%	-6%
O=C(/C=C/c1ccc(Br)cc1)NCCCn1ccnc1	2%	.	9%	.	.	35%[activator]	.	-5%
CSc1nnc(-c2ccccc2Cl)o1	-2%	15%	-8%	3.5%	4%	50%[activator]	1%	-24%
Cc1ccc(C)c(NC(=O)CN(C)C(=O)[C@@H](NC(N)=O)C(C)C)c1	0%	.	6%	.	-2%[46.1 µM]	-1%	-3%[46.1 µM]	-7%
O=C(Nc1cccc(Br)c1)c1ccc2nc(N3C(=O)CCC3=O)sc2c1	3%	?	-8%	-7.0%	1%	1%	0%	1%
CCOC(=O)N1CCN(C(=O)COc2ccc(S(=O)(=O)NCC(C)C)cc2C)CC1	7%	15%	-9%	0.9%	-4%	-3%	0%	-1%
C/C(=N\NC(=O)CCC(=O)O)c1c(-c2ccccc2)c2cc(Br)ccc2[nH]c1=O	3%	.	7%	.	.	-6%	.	-5%
CCOc1ccc(NC(=S)NNC(=S)Nc2cccc(C(F)(F)F)c2)cc1	1%	.	5%	.	?	3%	?	10%
CSCC[C@H](N)C(=O)N1CCC(C(=O)N[C@H](C(=O)NCc2ccccc2F)C(C)C)CC1	-1%	.	-8%	.	.	-15%	.	8%
CCC(C)NC(=O)COC(=O)Cc1sc(N)nc1-c1ccc(C)cc1 (stereo not drawn)	7%	-10%	1.1µM*	-7.1%	-1%	-3%	-2%[46.1 µM]	21%
COc1ccc2c(c1)nc1n2CN(CC2CCCO2)CN1Cc1ccccc1 (stereo not drawn)	6%	0%	-4%	-3.2%	.	.	.	.
COc1ccc(CCNC(=O)C2CCN(S(=O)(=O)c3ccc(C)cc3)CC2)cc1OC	1%	.	-2%	.	.	-17%	.	1%
CN1CC2=Cc3ccccc3OC23Oc2ccccc2C=C3C1	1%	0%	-11%	-2.1%	?	?	?	1%

Complete entries as entered above. Order of values: SARS PLpro yeast | Cruzain noTriton | NS1 inh | Cruzain Triton | Lassa entry inh | StopGo reporter | Marburg entry inh | RE007 growth inh
Cc1ccc(S(=O)C(c2ccccc2)c2ccccc2)cc1 (stereo not drawn) in the list: . | . | . | . | -13% | -2% | -7% | -6%
COc1ccc2c(c1)nc1n2CN(CC2CCCO2)CN1Cc1ccccc1 (stereo not drawn) in the list: 6% | 0% | -4% | -3.2% | . | . | . | .
COc1ccc(/C=C(/NC(=O)c2ccccc2)C(=O)N2CCC(C)CC2)cc1 in the list: 5% | . | -13% | . | ? | 11% | 2%[46.1 µM] | 24%
CCC(C)NC(=O)COC(=O)Cc1sc(N)nc1-c1ccc(C)cc1 (stereo not drawn) in the list: 7% | -10% | 1.1µM* | -7.1% | -1% | -3% | -2%[46.1 µM] | 21%

Random excerpt: 3 entries already listed.
SMILES	SARS PLpro yeast	Cruzain noTriton	NS1 inh	Cruzain Triton	Lassa entry inh	StopGo reporter	Marburg entry inh	RE007 growth inh
CCn1cc(S(=O)(=O)NCc2ccccc2Br)cn1	3%	.	11%	.	5%	67%[activator]	13%	15%
Nc1cnn(C2OC(CO)C(O)C2O)c(=O)n1 (stereo not drawn)	-4%	.	-5%	.	?	-20%	?	1%
Cc1ccc(S(=O)C(c2ccccc2)c2ccccc2)cc1 (stereo not drawn)	.	.	.	.	-13%	-2%	-7%	-6%

Later entries.
SMILES	SARS PLpro yeast	Cruzain noTriton	NS1 inh	Cruzain Triton	Lassa entry inh	StopGo reporter	Marburg entry inh	RE007 growth inh
CNC(=O)c1ccc(OCc2ccccc2)c(OC)c1	-6%	-20%	-5%	-7.8%	11%	29%	?	-2%
Cc1noc(NC(=O)c2ccc(Cl)cc2)c1Cl	-1%	.	.	.	-1%	31%[activator]	-30%[14.2 µM]	-20%
O=C(O)C1CCC1C(=O)Nc1nc(-c2ccc(Cl)s2)cs1 (stereo not drawn)	1%	.	-1%	.	.	3%	.	14%
CCOc1ncccc1C(=O)Nc1ccc(S(=O)(=O)Nc2nc(C)cc(C)n2)cc1	0%	.	.	.	0%	85%[activator]	10%	2%
C/C(N)=C(/C#N)C(=O)CSc1cc(C)c2cc(C)cc(C)c2n1	-2%	.	0%	.	-21%	4%	24%[46.1 µM]	16%
CCOC(=O)c1sc2ncn(CC(=O)Nc3cc(Cl)ccc3C)c(=O)c2c1C	.	3%	.	-0.3%	-1%[46.1 µM]	-9%	-6%[46.1 µM]	.
COCCSc1nnc(NC(=O)C2CCCO2)s1 (stereo not drawn)	0%	-9%	-7%	3.0%	0%	.	-1%	-17%
C/C(=N\NC(=O)CSc1nc2ccccc2c(=O)n1-c1ccccc1C)c1cccs1	-12%	-21%	20%	-5.5%	-1%	-17%	?	-10%

Hits appear at their usual frequency. About 4.6% of those tested had a hit in this group.
